VDR inhibitor = vitamin D3 receptor (human) inhibition; P11473; VDR-SRC2-3 peptide fluorescence polarization, 2 h; Potency, µM, for the others: max response, negative = inhibition, actives largely listed as inhibitors; actives 0.93% (n = 400,000); AID 504847; active means well fitted inhibition curve with a large enough effect; inconclusive means small, poorly fitted or top-dose-only effect, or another doubt; inactive means no such curve, though single readings can be large or run the other way; further: series mostly up to about 120 µM
Target sequence (P11473 whole entry, looked up): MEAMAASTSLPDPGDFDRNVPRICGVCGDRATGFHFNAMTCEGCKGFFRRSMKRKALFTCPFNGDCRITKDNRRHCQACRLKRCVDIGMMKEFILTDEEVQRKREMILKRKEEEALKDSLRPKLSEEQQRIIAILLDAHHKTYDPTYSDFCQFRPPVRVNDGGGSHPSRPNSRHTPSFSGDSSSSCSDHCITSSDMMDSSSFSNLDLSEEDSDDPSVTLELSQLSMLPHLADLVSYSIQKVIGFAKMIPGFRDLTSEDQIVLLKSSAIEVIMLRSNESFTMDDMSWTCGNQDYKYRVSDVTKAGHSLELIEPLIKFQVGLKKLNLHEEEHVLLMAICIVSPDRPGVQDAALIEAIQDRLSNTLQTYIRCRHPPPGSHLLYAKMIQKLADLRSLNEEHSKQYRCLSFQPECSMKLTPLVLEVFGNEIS
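Measured by FP: displacement of SRC2-3 coactivator peptide from VDR by library compounds, following a two-hour ambient incubation.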
The depositor's hits bear a star; u = inconclusive. On the % scale 0 is the no-effect control and ±100 the full control effect; potency means the concentration at half of the fitted maximal effect. An excerpt; the hit share may differ from the screen's.

| mol | VDR inhibitor |
| --- | --- |
| Cc1[nH]n(-c2ccc([N+](=O)[O-])cc2)c(=O)c1/C=N/N1CCOCC1 | -14% |
| COc1ccc(-c2nnn(CC(=O)N(Cc3cccs3)C(C)C(=O)NC3CCCC3)n2)cc1OC (centres undefined) | -7% |
| O=C(CSc1nnc(-c2ccc(Cl)cc2)n1Cc1ccco1)Nc1ccc2c(c1)OCCO2 | 26% |
| CCNC(=S)N1CCN(Cc2ccc3c(c2)OCO3)CC1 | 10% |
| CCCCCCCCc1nc(SC(C)C(=O)O)n[nH]1 (centres undefined) | 8% |
| CCN1c2cc(C)ccc2-n2cccc2C12CCN(C(=O)Nc1cc(OC)c(OC)c(OC)c1)CC2 | 9% |
| COC(=O)c1sccc1NS(=O)(=O)c1ccccc1 | 15% |
| COCCNC(=O)Cn1ncc2ccsc2c1=O | -1% |
| Cc1ccccc1C(=O)Nc1c(C(=O)N2CCCC2)cnn1-c1ccccc1 | -3% |
| CCC(c1n[nH]c(=S)n1-c1ccccc1)N(C)C (centres undefined) | 7% |
| CC(C)c1ccc(OCc2ccc(C(=O)N(C)C)o2)cc1 | -5% |
| CCOc1ccc(S(=O)(=O)N2CCC(C(=O)NCc3ccncc3)CC2)cc1 | 10% |
| CCCCc1nnc(NC(=O)CSc2nc(C)cc(=O)[nH]2)s1 | -7% |
| CCOc1ccc(NC2=CC(=O)C(=O)c3ccccc32)cc1 | u |
| CC(C)c1cc(C(=O)NCc2ccccc2)no1 | -21% |
| O=C(NCCCNC1CCCCC1)c1ccc(/C=N/O)nc1 | -10% |
| CC(C)N(C(=O)Cc1ccccc1[N+](=O)[O-])C(C)C | 3% |
| Cc1cc(NC(=O)CSc2n[nH]c(-c3cccs3)n2)no1 | 21% |
| COCc1nc2sc3c(c2c(=O)[nH]1)CCCC3 | -6% |
| N#C/C(=C(/O)c1cc2ccccc2o1)c1nc2ccccc2s1 | -24% |
| Cc1ccc(NC(=S)NCc2ccccn2)cc1 | u |
| CC(C(=O)NC1C(=O)N2C(C(=O)O)=C(CSc3nnnn3C)CSC12)n1cc(Cl)cn1 (centres undefined) | -13% |
| C=CCN(Cc1ccc(Cl)s1)C(=O)CNC(=O)CNC(=O)c1ccc(Cl)cc1Cl | -3% |
| CC(C)c1nnc(NC(=O)CCC(=O)NCc2ccccc2Cl)s1 | 7% |
| CCOc1nc(C#N)nc(N2CCCCC2)n1 | u |
| CC(=O)NCCc1csc(-c2ccccc2)n1 | -14% |
| CCc1ccc(-n2nc(C)c3c(C(=O)Nc4cc(OC)cc(OC)c4)cc(C)nc32)cc1 | -3% |
| Cc1ccc(C)n1-c1ccc(C(=O)N/N=C/c2ccncc2)cc1 | -16% |
| CCOC(=O)N1CCN(C(=O)c2csc3c2CCCCC3)CC1 | -9% |
| O=C(Nc1ccncc1)C1CCN(S(=O)(=O)c2ccccc2C(F)(F)F)CC1 | -12% |

3 entries from above, with the structure last.
VDR inhibitor	SMILES
9%	CCN1c2cc(C)ccc2-n2cccc2C12CCN(C(=O)Nc1cc(OC)c(OC)c(OC)c1)CC2
15%	COC(=O)c1sccc1NS(=O)(=O)c1ccccc1
-1%	COCCNC(=O)Cn1ncc2ccsc2c1=O

Further records:
| mol | VDR inhibitor |
| --- | --- |
| Cc1cccc(Cn2c(=O)c3c(nc4n3CCCN4Cc3ccccc3)n(C)c2=O)c1 | -14% |
| COc1ccc(-c2nc(CN3CCN(Cc4ccccc4)CC3)c(C)o2)cc1 | 20% |
| CCOC(=O)c1c(C)sc2c1N(C(=O)CCl)c1cc(Cl)ccc1S2 | u |
| CCOc1ccc(N(CC(=O)Nc2ccc(C)cc2)S(=O)(=O)c2c(C)[nH]c(=O)[nH]c2=O)cc1 | -14% |
| O=C(Nc1ccccc1)[C@@H]1CC=C[C@@H]2CCN(C3CCCCC3)C(=O)[C@@H]21 | -7% |
| CCN(CC(=O)Nc1ccccc1OC)C(=O)CSCc1ccc(C)cc1 | -4% |
| O=S(=O)(c1ccc(Br)s1)N1CCN(c2cccc(C(F)(F)F)c2)CC1 | -11% |
| CN(C)C(CNc1ncnc2sc3c(c12)CCCCC3)c1ccco1 (centres undefined) | 15% |
| CCC(COC)NC(=O)CCc1nnc(Cc2cccc(C(F)(F)F)c2)o1 (centres undefined) | 6% |
| CNc1nc2c(c(=O)n(C)c(=O)n2C)n1CCCc1ccccc1 | 27% |
| C=CCN1C(=O)C(O)(CC(=O)c2ccc(Cl)cc2)c2ccccc21 (centres undefined) | u |
| CC1CC(C)CN(S(=O)(=O)c2ccc(C(=O)NCCCn3ccnc3)cc2)C1 (centres undefined) | 3% |
| O=C(/C=C/c1ccc(-c2ccccc2)o1)c1ccccc1 | -19% |
| C=C1C[C@@]23CC[C@H]4[C@@](C)(CCC[C@@]4(C)C(=O)OC4OC(CO)C(O)C(O)C4O)[C@@H]2CC[C@]1(OC1OC(CO)C(O)C(O)C1OC1OC(CO)C(O)C(O)C1O)C3 (some centres undefined) | 9% |
| CN1CCC(N(C)CC(=O)Nc2cccc(Oc3ccccc3)c2)CC1 | -7% |
| O=c1c(-c2ccccc2)nnc2sc(COc3ccc(Br)cc3)nn12 | 12% |
| CC(C)(C)c1ccc(S(=O)(=O)NCCOCC(F)(F)C(F)F)cc1 | -2% |
| NS(=O)(=O)OCCCc1ccc(C(F)(F)F)cc1 | 9% |
| O=C(CSc1nc2ccccc2[nH]1)c1ccc(Cl)s1 | -1% |
| Cc1nc(CCNC(=O)Cc2ccc(Cl)cc2)cs1 | 7% |
| CC(C)CCCNc1nc(N2CCOCC2)nc(N2CCOCC2)n1 | -18% |
| Nc1ccc2ncccc2c1N | -21% |
| Cn1nc(C#N)c(=O)[nH]c1=O | 14% |
| COc1ccc(C)cc1NC(=O)CC(=O)Nc1ccc2nc3n(c(=O)c2c1)CCCCC3 | 7% |
| CC(C)Oc1ccc(C(CC(=O)O)Cc2ccccc2)cc1 (centres undefined) | 2% |
| CN1C(=O)C2(C(C#N)=C(N)N(c3cc(Cl)cc(Cl)c3)C3=C2C(=O)CCC3)c2ccccc21 (centres undefined) | -6% |
| CN(CC(=O)NCCN1CCN(Cc2ccccc2)CC1)S(=O)(=O)c1cccc2nsnc12 | -5% |
| O=C(O)c1ccc(NC(=O)C2C3CCC(O3)C2C(=O)O)cc1 (centres undefined) | 4% |
| Cc1cc(-c2csc(NC(=O)c3ccc(C#N)cc3)n2)c(C)n1Cc1ccccc1 | -30% |
| CCCCc1cc(=O)oc2c(CN(CC)CC)c(O)c(Cl)cc12 | -12% |

Later entries.
| mol | VDR inhibitor |
| --- | --- |
| COCCn1c(SCC(=O)NC(=O)NC(C)C)nc2ccccc21 | -24% |
| CCCCCn1c(Sc2nc3ccccc3s2)nc2c1c(=O)[nH]c(=O)n2C | -4% |
| N#Cc1ccc(C23CC4(C2)[C@H](CN(P(=O)(c2ccccc2)c2ccccc2)[C@@H]4c2ccccc2)C3c2ccc(Cl)nc2)cc1 (some centres undefined) | -10% |
| Cc1ccc(-c2cc(C(=O)Nc3cc(C)on3)c3ccccc3n2)cc1 | -7% |
| O=[N+]([O-])c1cccc(-n2cccc2/C=N/Nc2nc(N3CCCCC3)nc(N3CCCCC3)n2)c1 | -3% |
| CCCCOc1ccc(S(=O)(=O)Nc2cc(OC)ccc2OC)cc1 | -2% |
| CCCN(C(=O)c1cc(S(=O)(=O)N(C)c2ccc(OCC)cc2)ccc1C)C1CCS(=O)(=O)C1 (centres undefined) | -14% |
| COCCOC(=O)C1=C(C)N=C2SCCC(=O)N2C1c1ccc(OCc2ccccc2)c(OC)c1 (centres undefined) | 0% |
| Fc1ccc(C2=CSC3=NCCN23)cc1 | -9% |
| Cc1cc(O)c(C)c(O)c1/C=N/NC(=O)c1cccnc1 | 5% |
| C[C@@H](O)c1nc2ccccc2n1N | -13% |
| COc1ccc(NC(=O)CN2C(=O)COc3ccc(S(=O)(=O)Nc4ccccc4)cc32)cc1 | 11% |

Structures shown so far with a halogen, in the order listed:
| mol | VDR inhibitor |
| --- | --- |
| O=C(CSc1nnc(-c2ccc(Cl)cc2)n1Cc1ccco1)Nc1ccc2c(c1)OCCO2 | 26% |
| CC(C(=O)NC1C(=O)N2C(C(=O)O)=C(CSc3nnnn3C)CSC12)n1cc(Cl)cn1 (centres undefined) | -13% |
| C=CCN(Cc1ccc(Cl)s1)C(=O)CNC(=O)CNC(=O)c1ccc(Cl)cc1Cl | -3% |
| CC(C)c1nnc(NC(=O)CCC(=O)NCc2ccccc2Cl)s1 | 7% |
| O=C(Nc1ccncc1)C1CCN(S(=O)(=O)c2ccccc2C(F)(F)F)CC1 | -12% |
| CCOC(=O)c1c(C)sc2c1N(C(=O)CCl)c1cc(Cl)ccc1S2 | u |
| O=S(=O)(c1ccc(Br)s1)N1CCN(c2cccc(C(F)(F)F)c2)CC1 | -11% |
| CCC(COC)NC(=O)CCc1nnc(Cc2cccc(C(F)(F)F)c2)o1 (centres undefined) | 6% |
| C=CCN1C(=O)C(O)(CC(=O)c2ccc(Cl)cc2)c2ccccc21 (centres undefined) | u |
| O=c1c(-c2ccccc2)nnc2sc(COc3ccc(Br)cc3)nn12 | 12% |
| CC(C)(C)c1ccc(S(=O)(=O)NCCOCC(F)(F)C(F)F)cc1 | -2% |
| NS(=O)(=O)OCCCc1ccc(C(F)(F)F)cc1 | 9% |
| O=C(CSc1nc2ccccc2[nH]1)c1ccc(Cl)s1 | -1% |
| Cc1nc(CCNC(=O)Cc2ccc(Cl)cc2)cs1 | 7% |
| CN1C(=O)C2(C(C#N)=C(N)N(c3cc(Cl)cc(Cl)c3)C3=C2C(=O)CCC3)c2ccccc21 (centres undefined) | -6% |
| CCCCc1cc(=O)oc2c(CN(CC)CC)c(O)c(Cl)cc12 | -12% |
| N#Cc1ccc(C23CC4(C2)[C@H](CN(P(=O)(c2ccccc2)c2ccccc2)[C@@H]4c2ccccc2)C3c2ccc(Cl)nc2)cc1 (some centres undefined) | -10% |
| Fc1ccc(C2=CSC3=NCCN23)cc1 | -9% |
